From PubChem BioAssay
Marburg entry inh: inhibitors of Marburg virus binding or cell entry | Potency, µM (top dose mostly 37.8 µM), without a hit: top-dose activity change, negative = inhibition, usual class: inhibitors | AID 540276 | 300,000 tested, 1.8% active | Marburg virus pseudotyped entry inhibition, cell reporter; control for the full effect not named in the record; about a third of the inactives were read at about 46 µM; active = well fitted inhibition curve with a large enough effect; inconclusive = small, poorly fitted or top-dose-only effect, or effect the other way; inactive = flat fitted curve, though single readings scatter; tested in HEK293 cells; about a fifth of its hits are not listed in these tables; note: % is set by controls: 0 for no effect and ±100 for the full control effect; luciferase read-out
Cruzain Triton: inhibitors of Trypanosoma cruzi cruzain with detergent | purified cruzain, Z-FR-AMC fluorescence, 0.01% Triton | Potency, µM, for the others: max response, negative = inhibition, actives largely listed as inhibitors | 200,000 tested, 0.43% active | AID 1478;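 note: plate controls were neutral wells for no effect and buffer without enzyme for full effect; nearly all actives have a fitted effect of over 40% in size; top concentration of the series not given in the record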
Target sequence (P25779 123-467 limits assumed): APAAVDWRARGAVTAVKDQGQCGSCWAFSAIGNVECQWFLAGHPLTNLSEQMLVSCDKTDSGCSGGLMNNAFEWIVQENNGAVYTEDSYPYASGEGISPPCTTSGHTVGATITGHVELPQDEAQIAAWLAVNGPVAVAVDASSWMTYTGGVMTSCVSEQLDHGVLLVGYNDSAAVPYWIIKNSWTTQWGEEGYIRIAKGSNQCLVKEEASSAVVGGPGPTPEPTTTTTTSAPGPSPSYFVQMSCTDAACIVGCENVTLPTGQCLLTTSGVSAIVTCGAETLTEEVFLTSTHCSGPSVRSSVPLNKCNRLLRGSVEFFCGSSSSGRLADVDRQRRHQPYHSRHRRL
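Cysteine protease activity tested under reducing, mildly acidic conditions (100 mM sodium acetate pH 5.5, 5 mM DTT) plus 0.01% Triton X-100. Cruzain 1.5 nM; substrate Z-FR-AMC 2 uM; 15 min compound preincubation at room temperature.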
RE007 growth inh: less growth of the S. pombe RE007 Vpr strain | S. pombe RE007 Vpr strain, BacTiter-Glo ATP luminescence, 24 h; control for the full effect not named in the record | Potency, µM (series often up to 92.2 µM), for inactives: top-dose activity change, negative = less growth | 360,000 tested, 0.21% active; active = well fitted falling curve with a large enough effect; inconclusive = small, poorly fitted or top-dose-only effect; inactive = no such curve, though single readings can be large or run the other way;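 note: % is set by controls: 0 for no effect and ±100 for the full control effect; nearly all actives have a fitted effect of over 50% in size; the assay follows cell death caused by Vpr and the record does not say whether a fall means rescue or toxicity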
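Fission yeast RE007 carrying one integrated HIV-1 vpr copy, seeded at OD 0.01 in PMG+AL medium with 23 nL pinned compound. Grown 24 h at 30 degrees; viability read by BacTiter-Glo luminescence after 5 min.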
StopGo reporter: lowers the luciferase signal of an FMDV 2A StopGo reporter. Potency, µM (highest dose often 57.9 µM), for inactives: at the highest dose signal change, negative = less light. human cells with a luciferase reporter of 2A StopGo recoding; control for the full effect not named in the record. 410,000 tested, 1.2% active. AID 1159524; active = well fitted falling curve with a large enough effect; inconclusive = small, poorly fitted or top-dose-only effect; inactive = no such curve, though single readings can be large or run the other way; tested in HEK293T cells; note: % is set by controls: 0 for no effect and ±100 for the full control effect; nearly all actives have a fitted effect of over 45% in size; luciferase light after 4 h
NS1 function inh: influenza NS1 inhibition; S. cerevisiae slowed by influenza A NS1, growth recovery by OD600; Potency, µM (series often up to 46.1 µM), for inactives: at the top dose activity, positive = more growth; 270,000 tested, 0.4% active; active means well fitted rising curve with a large enough effect; inconclusive means small, poorly fitted or top-dose-only effect; inactive means no such curve, though single readings can be large or run the other way; note: nearly all actives have a fitted effect of over 50% in size
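Compounds were scored for reversing the slow growth caused by influenza A NS1 in S. cerevisiae, measured by optical density at 600 nm. Assay medium contained 2% galactose at pH 6.0; NS1-free yeast of the same strain were the positive control.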
LASV entry inh: Lassa virus entry inhibition; Lassa virus pseudotype entry inhibition, cell reporter; control for the full effect not named in the record; Potency, µM (series often up to 37.9 µM), inactives show top-dose activity change, negative = inhibition, usual class: inhibitors; 300,000 tested, 1.2% active; AID 540256; active means well fitted inhibition curve with a large enough effect; inconclusive means small, poorly fitted or top-dose-only effect, or effect the other way; inactive means flat fitted curve, though single readings scatter; tested in HEK293 cells; note: % is set by controls: 0 for no effect and ±100 for the full control effect; nearly all actives have a fitted effect of over 50% in size; luciferase read-out
SARS PLpro yeast: blocks SARS-CoV papain-like protease in a yeast assay; S. cerevisiae expressing SARS-CoV PLpro, growth rescue; control for the full effect not named in the record; Potency, µM (doses to about 32.9 µM), inactives show at the highest dose activity, positive = growth rescue; 330,000 tested, 0.19% active; active means well fitted rising curve with a large enough effect; inconclusive means small, poorly fitted or top-dose-only effect; inactive means no such curve, though single readings can be large or run the other way; note: 0% is about no effect; nearly all actives have a fitted effect of over 55% in size; growth read by luminescence after 48 h
Cruzain noTriton: blocks cruzain activity in detergent-free assay | P25779 | purified cruzain, Z-FR-AMC fluorescence, no detergent | Potency, µM, for inactives: max response, negative = inhibition, usual class: inhibitors | 200,000 tested, 2.3% active | AID 1476;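 note: plate controls were enzyme without inhibitor for no effect and buffer without enzyme for full effect; nearly all actives have a fitted effect of over 40% in size; top concentration of the series not given in the record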
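Detergent-free condition (0.00005% Triton X-100) in acetate buffer pH 5.5 with DTT. 1.5 nM enzyme and compound were pre-mixed 15 min, then 2 uM Z-FR-AMC substrate added; reaction progress from fluorescence change between first and third reads (60 s).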
Numbers without * were called inactive; ? = inconclusive; / = no result given; & = joins results of further samples; [ ] = remark or other dose. Unless noted, calls come from the whole dose curve; as a rule, active = well fitted curve in the direction sought with a large enough effect; inconclusive = small, poorly fitted or top-dose-only effect, or another doubt; inactive = no such curve, though single readings can be large; an effect the other way counts as inactive or inconclusive. Potency is the fitted concentration of half-maximal effect.

SMILES | Marburg entry inh | Cruzain Triton | RE007 growth inh | StopGo reporter | NS1 function inh | LASV entry inh | SARS PLpro yeast | Cruzain noTriton
O=C(CN1N=C(c2ccc(Cl)cc2)CCC1=O)NCCN1CCc2ccccc2C1 | 6.1% | -2.3% | -4.8% | 0.0% | -8.2% | 15.1% | ? | -13.0%
O=C(NNC(=O)c1ccccc1F)c1ccco1 | ? | / | 2.7% | 22.6% | 3.3% | ? | 0.6% | /
Cc1cccc(NC(=S)NC2CC3CCCC(C2)N3Cc2ccccc2)c1C (stereo not drawn) | ? | / | 0.0% | -22.4% | -1.6% | -20.2% | 0.5% | /
CC(=O)Nc1cccc(/C(C)=N/NC(=O)c2ccccc2Cl)c1 | 3.6% | 3.0% | -4.2% | 0.2% | -9.1% | 1.0% | -2.7% | 1.1%
Cn1c(SCC(=O)N/N=C/c2ccc([N+](=O)[O-])s2)nnc1-c1ccccc1 | ? | -4.8% | -7.5% | ? | -70.4% | ? | -63.4% | -1.4%
Cc1noc(C)c1C(=O)NCc1ccccc1 | ? | 2.2% | 11.4% | -8.9% | 5.4% | 13.3% | 3.0% | -5.6%
Cc1cccc(-n2ccnc2CN2CCC(CO)(Cc3ccccc3)CC2)c1 | / | / | 17.4% | 5.1% | 1.3% | / | -1.6% | /
O=C(c1ccccc1Cl)N1CCN(Cc2ccc3c(c2)OCO3)CC1 | / | / | -7.9% | ? | -14.2% | / | 1.4% | /
Cc1ccc2c(c1)c1c3n2CCNC3CCC1 (stereo not drawn) | / | / | 1.3%[18.4 µM] | -21.6%&-13.1%&1.4% | 11.1% | / | -4.6%&1.7% | /
CCn1c2ccccc2c2n[nH]c(=S)nc21 | / | / | 37.6% | -20.2% | 3.7% | / | -4.1% | /
O=C(OCCN1CCCCC1)c1cc2ccccc2o1 | ? | 1.3% | -23.6% | 11.2% | -8.8% | 23.3% | 1.1% | 11.4%
COc1cccc(C(=O)N2CCN(C3CCC(c4ccccc4)CC3)CC2)c1OC (stereo not drawn) | -26.2%&-26.2%[46.1 µM] | 1.3% | 12.1% | 0.0% | -30.6% | -14.7% | 14.4% | 1.7%
CCn1c(O)c(/C=C2\C=NN=C2c2ccccc2)sc1=S | -10.0% | / | 1.5% | -11.5% | ? | ? | -1.3% | /
COc1ccccc1N(CC(N)=O)S(=O)(=O)c1ccc(C)cc1 | 27.4% | 1.7% | -12.1% | / | -0.8% | 2.2% | -12.5% | -0.5%
Cc1nc2c(sc(=S)n2Cc2ccco2)c(=O)n1CC(=O)Nc1ccccc1F | / | / | -3.0% | -12.3% | 10.2% | / | -15.0% | /
CN1CCN(S(=O)(=O)c2ccc3[nH]c(=O)oc3c2)CC1 | 6.9% | 0.6% | -17.2% | -10.7% | -7.6% | -6.3% | 16.8% | -5.9%
COc1cc(Nc2ccccc2Cl)c([N+](=O)[O-])nc1[N+](=O)[O-] | ? | 0.6% | 14.8% | ? | 5.9% | ? | 6.3% | -0.5%
Cn1c(CCCCCN)nc2ccccc21 | -21.3%[46.1 µM] | 5.0% | -23.7% | 29.0% | -5.9% | 15.1% | 4.8% | 6.7%
CC(=O)c1cccc(CN2CCC(n3nccc3NC(=O)c3ccc4c(c3)OCO4)CC2)c1 | -15.9% | / | 6.1% | -13.9% | 5.0% | 8.9% | -3.4% | /
O=C(CSc1ncc(-c2ccccc2)[nH]1)Nc1cccc(O)c1 | -7.2% | -4.2% | 2.9% | / | 10.7% | 0.1% | 3.2% | -8.3%
COC(=O)c1ccccc1NC(=O)CCC(=O)N1CCSc2ccccc21 | / | / | -2.9% | -21.7% | -22.3% | / | 17.3% | /
CCOC(=O)c1cc(NC(=O)Nc2ccc(OC)c(OC)c2)c(C)nc1C | -22.8% | -5.4% | 1.7% | -16.3% | -9.4% | -6.3% | 0.4% | 1.0%
CC(C)(C)n1ncc2c(=O)n(CC(=O)c3ccc(Cl)cc3)cnc21 | ? | 0.1% | -17.3% | 3.3% | -11.2% | ? | -2.7% | 0.0%
CCOC(=O)c1ccc(S(=O)(=O)N2CCN(CC3CC=CCC3)CC2)cc1 (stereo not drawn) | 7.3%&7.3% | 3.5% | -5.7% | -7.0% | -3.1% | -8.3% | 6.8% | -9.4%
O=C(NNS(=O)(=O)c1ccc(Br)cc1)C1CCCCC1 | 2.1%[46.1 µM] | / | -1.3% | 43.8%[activator] | / | 2.3% | -7.6% | /

4 records drawn at random from those above:
SMILES | Marburg entry inh | Cruzain Triton | RE007 growth inh | StopGo reporter | NS1 function inh | LASV entry inh | SARS PLpro yeast | Cruzain noTriton
Cn1c(CCCCCN)nc2ccccc21 | -21.3%[46.1 µM] | 5.0% | -23.7% | 29.0% | -5.9% | 15.1% | 4.8% | 6.7%
Cc1cccc(NC(=S)NC2CC3CCCC(C2)N3Cc2ccccc2)c1C (stereo not drawn) | ? | / | 0.0% | -22.4% | -1.6% | -20.2% | 0.5% | /
COc1ccccc1N(CC(N)=O)S(=O)(=O)c1ccc(C)cc1 | 27.4% | 1.7% | -12.1% | / | -0.8% | 2.2% | -12.5% | -0.5%
COc1cc(Nc2ccccc2Cl)c([N+](=O)[O-])nc1[N+](=O)[O-] | ? | 0.6% | 14.8% | ? | 5.9% | ? | 6.3% | -0.5%

Remaining list, next part:
SMILES | Marburg entry inh | Cruzain Triton | RE007 growth inh | StopGo reporter | NS1 function inh | LASV entry inh | SARS PLpro yeast | Cruzain noTriton
O=C(N/C(=C\c1cccs1)C(=O)N1CCOCC1)c1ccco1 | 3.0% | / | 6.1% | -11.4% | 8.1% | 13.1% | 0.4% | /
CC1CC(C)CN(C(=O)C(C)N(C)CC(=O)Nc2ccccc2Cl)C1 (stereo not drawn) | 14.3% | / | 11.2% | -7.2% | / | 0.1% | 0.8% | /
COC(=O)c1ccccc1C(=O)N1CC(O)CO1 (stereo not drawn) | -9.6%[46.1 µM] | / | 7.9% | -9.5% | 1.7% | -2.2%[46.1 µM] | -1.3% | /
O=C(COc1ccc(Cl)cc1)Nc1nnc(S(=O)(=O)N2CCCCCC2)s1 | / | -3.7% | -5.2% | -26.5%&-11.1% | 2.1% | -4.0%[46.1 µM] | 2.2% | -4.4%
CCN(CC)c1nc(Nc2ccc([N+](=O)[O-])cc2)nc(N(CC)CC)n1 | / | / | 3.9% | -23.9% | 15.1% | / | 3.1% | /
Cn1c2ccccc2c2c(C(=O)NCCCN3CCCC3=O)cn(C3CCCCC3)c(=O)c21 | 4.9%&-3.2% | -0.6% | 25.8% | -31.2% | -1.2% | -4.2% | -1.1% | 29.8%
C/C=C\C(=O)Nc1cccc(C2=NOC3(C2)C[C@@H](C(N)=O)N(C(=O)CC(c2ccccc2)c2ccccc2)C3)c1 (stereo partly drawn) | / | / | 9.1% | 6.4% | -11.3% | / | 4.5% | /
CCOC(=O)C1CCN(C(=O)CCC2CCCC2)CC1 | / | / | -10.5% | -10.0% | 14.4% | / | -4.9% | /
COc1ccc(N(C(C)=O)S(=O)(=O)c2cccc3cccnc23)cc1 | -3.7% | -0.7% | -2.4% | -6.7% | 19.6% | -6.3% | -4.1% | -5.7%
O=C(CCn1nc(-c2ccc(Cl)cc2)ccc1=O)N1CCOCC1 | -2.8% | 4.6% | -7.5% | -9.2% | ? | 7.0% | 4.5% | -15.0%
Cc1ccc(C(=O)CSc2nc(C)cc(C)c2C(N)=O)cc1 | -7.2% | -4.8% | -3.5% | / | 1.2% | 0.0% | 1.7% | -2.5%
COc1ccc(Nc2nc(N)nc(CSc3nncn3C)n2)cc1 | -6.5% | 1.5% | -9.9% | 39.2%[activator] | 2.9% | 0.0% | 2.8% | -3.2%
COc1cccc(CNC(=O)CCC(=O)N2CC(C)Sc3ccccc32)c1 (stereo not drawn) | / | -2.0% | / | -5.6% | / | -1.0%[46.1 µM] | / | 0.5%
CCCCN(C)S(=O)(=O)c1ccc(C(=O)Nc2sc3c(c2C(=O)OCC)CCN(C(C)C)C3)cc1 | / | -2.2% | / | -25.0% | / | -2.9%[46.1 µM] | / | 3.3%
Cc1ccc2[nH]cc(C(=O)CN3CCN(C)CC3)c2c1 | ? | 3.0% | 2.2% | 13.1% | -1.8% | 13.1% | ? | 0.8%
CC(C)c1ccc(C(=O)CSc2n[nH]c(-c3ccncc3)n2)cc1 | 8.0%[46.1 µM] | -0.6% | 17.3% | -27.4% | -220.9% | -25.6% | -31.6% | ?
Fc1ccccc1CSCc1nc2ccccc2[nH]1 | / | / | -12.3% | 45.6%[activator] | -1.7% | / | -2.2% | /
CSc1nc(-c2ccccc2)nc(C(Cl)Cl)n1 | 3.55µM* | -6.2% | -10.5% | -16.0% | -6.4% | ? | ? | -4.2%
Cc1ccc(SCc2c(C(=O)N/N=C/c3ccncc3)nnn2-c2nonc2N)cc1 | / | / | -1.2% | 10.4% | 6.1% | / | -4.0% | /
Cc1cccc(OCC(=O)Nc2cc(C)c(C)cc2O)c1 | -2.4% | 0.4% | -4.2% | / | -38.6% | 23.6% | -4.1% | ?
CCn1nc(CC(=O)O)c2ccccc2c1=O | 0.0%[46.1 µM] | / | 6.0% | 2.5% | 2.8% | -8.8% | 0.7% | /
Cn1ccnc1SCC(=O)c1ccc(C#N)cc1 | -1.1%[46.1 µM] | / | 5.6% | -0.2% | 0.5% | 13.5% | 2.0% | /
Cc1nc(-c2ccc(C)c(N3CCN(C(=O)Nc4ccc(Br)cc4)CC3)c2)no1 | / | -2.7% | / | -17.8% | / | -20.3%[46.1 µM] | / | -28.8%
CC(C)(C)n1nc2c(c1NC(=O)COc1ccc(Cl)cc1)CSC2 | ? | -2.3% | -13.6% | / | -34.4% | -1.4% | 6.1% | ?
CSc1sc2ccccc2[n+]1CCCS(=O)(=O)[O-] | 0.6% | 2.6% | 2.1% | / | -1.5% | -0.5% | 2.2% | 3.1%
Cc1cc2occ(CC(=O)NCc3cccs3)c2cc1C(C)C | ? | -6.4% | / | -16.4% | -4.1% | -13.0% | -17.7% | 10.6%
Cc1cc(O)ccc1NC(=O)Cc1cccc2ccccc12 | -5.0%[46.1 µM] | / | -11.5% | 0.7% | / | -34.9%[46.1 µM] | / | /
